High-throughput results from PubChem.
VACV E9 pol inh: vaccinia E9 polymerase processive synthesis inhibition. AID 493162. normalized absorbance, % (test concentration not listed). in vitro processive DNA synthesis, absorbance read-out; active compounds read low; some inactives read as strong as hits. 46,000 tested, 0.94% active;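 active means replicate mean up to 90% and picked by the depositor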;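 further: 100% = median of the test wells of a plate; 100 nL library stock went into each well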
Active calls of the source: *.

Sample of the layout, five compounds:
Structure	VACV E9 pol inh
CCOC(=O)c1ccc(CNS(=O)(=O)c2ccc(S(=O)(=O)N3CCOCC3)cc2)o1	98
COc1ccc(C(=O)n2c(=S)nc3cc(C)ccn32)cc1	101
O=C(NCc1ccc2[nH]c3c(c2c1)CCCC3)c1ccc(F)c(F)c1	96
CCN1CCN(C(c2cccs2)C(C)NC(=O)c2c(F)cccc2F)CC1 (stereo unspecified)	99
Nc1nc(SCc2ccc(C(=O)NCCO)cc2)nc2sc3c(c12)CCCC3	100

The listing, from the first entry:
Structure	VACV E9 pol inh
CCOC(=O)c1ccc(CNS(=O)(=O)c2ccc(S(=O)(=O)N3CCOCC3)cc2)o1	98
COc1ccc(C(=O)n2c(=S)nc3cc(C)ccn32)cc1	101
O=C(NCc1ccc2[nH]c3c(c2c1)CCCC3)c1ccc(F)c(F)c1	96
CCN1CCN(C(c2cccs2)C(C)NC(=O)c2c(F)cccc2F)CC1 (stereo unspecified)	99
Nc1nc(SCc2ccc(C(=O)NCCO)cc2)nc2sc3c(c12)CCCC3	100
CCOC(=O)CC(c1ccc(N)cc1)n1c(C)ccc1C (stereo unspecified)	110
CCCC(=O)N1N=C(c2ccc(C)cc2)OC1c1ccc(OC)cc1 (stereo unspecified)	106
O=C(OCC(=O)N1CCCCC1)c1ccccc1Cc1ccccc1	106
Cc1c(C(=O)Nc2ccccc2)csc1-c1ccccc1	92
CN(CC(O)Cn1c2ccccc2c2ccccc21)S(C)(=O)=O (stereo unspecified)	109
Cc1ccc(NC(=S)N(Cc2cccc(C)c2)c2ccccn2)cc1	102
O=C(C1CCCN1S(=O)(=O)c1ccc(Cl)c(Cl)c1)N1CCOCC1 (stereo unspecified)	100
O=C(COC(=O)c1ccccc1)Nc1ccc(F)c(Cl)c1	92
O=C(O)CCNCc1cccs1	101
O=C(NCCN1C(=O)C2C3C=CC(C3)C2C1=O)NCc1ccccc1 (stereo unspecified)	101
CCCn1c(SCC(=O)C(C)(C)C)nc2ccccc21	103
COC(=O)c1cc2c(s1)CS(=O)C2 (stereo unspecified)	98
N#Cc1c(NC(=O)CSc2nnc3ccccn23)sc2c1CCCC2	98
Cc1cc(C)c(C#N)c(SCSCc2ccccc2)n1	100
Cc1ccccc1-n1nc2c(c1NC(=O)CC(C)C)CS(=O)C2 (stereo unspecified)	99

A different layout for some results above.
> Nc1nc(SCc2ccc(C(=O)NCCO)cc2)nc2sc3c(c12)CCCC3
  VACV E9 pol inh: 100
> O=C(O)CCNCc1cccs1
  VACV E9 pol inh: 101
> Cc1ccc(NC(=S)N(Cc2cccc(C)c2)c2ccccn2)cc1
  VACV E9 pol inh: 102

Continued.
Structure	VACV E9 pol inh
CC1CCc2c(sc3nc(SCc4nc(-c5ccccc5)no4)n(C)c(=O)c23)C1 (stereo unspecified)	100
CN(C(=O)Cc1cccs1)c1ccccc1	102
O=C1/C(=C\Nc2ccccc2F)S(=O)(=O)N(Cc2ccc(Cl)cc2)c2ccccc21	100
COc1ccc(-c2nnc3ccc(Cl)nn23)c(OC)c1	100
NC(=O)c1ccsc1NC(=O)/C=C/c1ccccc1	99
CCOC(=O)c1cnc2ccc(C)cc2c1Nc1ccc(N2CCOCC2)cc1	99
O=C(O)CCN1C(=O)C(=O)/C(=C(/O)c2ccccc2)C1c1ccccc1 (stereo unspecified)	100
COc1ccccc1NC(=O)CN1C(=O)CSC(C)C1=O (stereo unspecified)	92
NC(=N/c1nc2ccccc2o1)/N=C/c1c(O)[nH]c(=O)[nH]c1=O	100
COc1ccc(-c2n[nH]c(=S)n2-c2ccccc2C)cc1OC	101
COC(=O)c1ccc(CS(=O)(=O)c2ccc(OC)cc2)o1	97
CC1CN(Cc2c(F)cccc2Cl)CC(C)O1 (stereo unspecified)	114
O=C(Nn1cnc2ccccc2c1=O)c1ccccc1	100
CC(C)(C)c1cc(CN2CCN(CCC#N)CC2)cc(C(C)(C)C)c1O	101
CCOC(=O)N1CCN(C(=O)CSc2ncnc3c2nnn3Cc2ccc(F)cc2)CC1	101
Cc1nc2ccccn2c1-c1ccnc(SCC(=O)N(c2ccccc2)C2CCCCC2)n1	99
COc1ccc2c(c1)c(=O)oc1c(C)c(OC(C(=O)O)c3ccccc3)ccc12 (stereo unspecified)	99
CNC(=O)c1ccc(Nc2nnc(C)c3ccccc23)cc1	103
Cc1cc2[nH]c(=O)c(=O)[nH]c2cc1S(=O)(=O)NCc1ccccc1	109
Cc1nnc(C)n1/N=C/C(Cl)=C/c1ccccc1	79
C=CCNS(=O)(=O)CC12CCC(CC1=O)C2(C)C (stereo unspecified)	102
O=C(NC1CCCCC1)C12CC3CC(CC(Cl)(C3)C1)C2	103
O=C(OCC(=O)N1CCC(Cc2ccccc2)CC1)c1ccccc1	99
COC(=O)c1ccc(C(=O)OC)c(NC(=O)c2ccccc2)c1	100
CCCn1c(Nc2nc3ccccc3n2C)nc2ccccc21	110
Cn1cc(NC(=O)Nc2ccccc2F)c2ccccc2c1=O	92
CC(=O)Nc1cccc(-c2cn3ccccc3n2)c1	77
Cc1cc(C)n(C(=O)CCCC(=O)n2nc(C)cc2C)n1	77
O=S(=O)(c1ccc(Cl)cc1)c1ccc(NCCO)cc1	95
O=C(CSc1nc2ccccc2c2nc3ccccc3n12)NCCc1ccccc1	100
CSc1cccc(N2C(=O)C3CC=C(C)CC3C2=O)c1 (stereo unspecified)	102
CCN(CC)c1ccc(NS(=O)(=O)c2ccc(C)cc2)cc1	100
Cc1ccccc1NC(=O)c1c[nH]c2ccccc2c1=O	99
CN(C)c1cccc(NC(=O)c2ccncc2)c1	93
CC(Nc1nc(N2CCNCC2)nc2ccccc12)c1ccccc1 (stereo unspecified)	100
Cc1ccc2[nH]c3c(c2c1)CCCC3NC1CCCCC1 (stereo unspecified)	100
S=C1NCN(Cc2ccncc2)CN1	91
CC1CCCCN1CCNC(=O)C1c2ccccc2C(=O)N(C2CCCC2)C1c1cccs1 (stereo unspecified)	92
Cc1cc2ncc(-c3ccnc(SCc4c(Cl)cccc4Cl)n3)c(C)n2n1	96
Cc1ccc(S(=O)(=O)c2cnc(SCC(=O)N3CCCc4ccccc43)[nH]c2=O)cc1	83
CCn1c(C(F)(F)F)nc2ccccc21	123
CC(C)CN(CC(C)C)C(=O)C1c2ccccc2Oc2ccccc21	101
CCC1CCCCN1C(=O)Cn1c(=O)n(Cc2ccccc2)c(=O)c2c3c(sc21)CCC3 (stereo unspecified)	98
O=C(Oc1ccc(-c2csnn2)cc1)c1cc(C(F)(F)F)cc(C(F)(F)F)c1	100
CC(C)/C=c1/[nH]c(=O)/c(=C/c2ccccc2)[nH]c1=O	100
N#C/C(C(=O)Nc1ccc(Cl)cc1)=C1/SCC(=O)N1c1ccccc1	104
CC(C)Cn1c(-c2cccs2)nc2ccccc21	90
CCn1c(=O)cc(OCC(=O)N2CCCC2)c2ccccc21	97
CC(=O)N(CCOc1ccccc1)CCOc1ccccc1	101
O=C(Nc1ccccc1)c1ccn(C(=O)c2ccccc2)n1	101
Cc1ccc2cc(CCNC(=O)CC(C)C)c(=O)[nH]c2c1	101
C=C(C)Cn1c(CNC(=O)CCC)nc2ccccc21	100
COCc1cc(=O)[nH]c(Nc2nc3ccccc3s2)n1	90
N#CN(Cc1ccccc1)Cc1ccccc1	97
CCOC(=O)C1CCN(C(=S)NC2Cc3ccccc3C2)CC1	100
N#Cc1cc(Oc2ccc(C(=O)c3ccccc3)cc2)nc2ccccc12	100
Cc1ccc(C2=NNC(=O)CC2)cc1	88
O=C(NCCCn1ccnc1)c1cc2c(s1)CCCC2	108
O=C(NC1CCCCCC1)c1cccc(N2CCCC2=O)c1	86
CCC(=O)c1cn(CC(=O)NCCOc2ccc(Cl)cc2)c2ccccc12	98

Remaining list, next part:
Structure	VACV E9 pol inh
O=C(CSc1nc2ccccc2s1)n1c2ccccc2c2ccccc21	100
Cc1cc(C)n(NC(=S)NCc2cccs2)c(=O)c1C#N	90
CCCC(=O)Nc1ccc2[nH]c(=O)[nH]c2c1	100
Cc1nccn1-c1ccc(C(F)(F)F)cc1N	90
NC(=O)/C=C\c1ccccc1Oc1ccccc1	111
O=C(NCc1cccnc1)C1c2ccccc2C(=O)N1C1CCCC1 (stereo unspecified)	105
Cc1nn(-c2ccccc2)c(Cl)c1C(=O)NCc1ccco1	105
Cc1ccc(NC2=Nc3ccccc3SC2)cc1	101
COC(=O)c1ccc(NC(=S)N(CC(C)C)CC(C)C)cc1	99
CCCCS(=O)CSc1nc(-c2ccc(OC)cc2)cc(-c2ccccc2)c1C#N (stereo unspecified)	100
C1=Cc2ccccc2N2CC(c3ccc4ccccc4c3)N=C12 (stereo unspecified)	102
O=C(c1ccc(C(=O)N2CCOCC2)s1)N1CCOCC1	97
O=S1(=O)CCN=C2C(Cl)=CC(C(F)(F)F)=CN21	98
Cc1onc(-c2c(Cl)cccc2Cl)c1C(=O)N1CC=CCC1	88
O=C(Oc1cc(=O)oc2c1c(=O)n1c3c(cccc23)CC1)c1ccccc1	78
CC(=O)Nc1ccc2nc(NC(=O)/C=C/c3ccccc3)sc2c1	106
CC(C)C(NC(=O)c1ccccc1)C(=O)N1CCCCCC1 (stereo unspecified)	100
CCCCC1(C)OC(=O)C(=Cc2ccc(OCC)c(OC)c2)C(=O)O1 (stereo unspecified)	100
COc1ccc(CNCCN(C)C)cc1	88
O=C(Cn1ncc2c([nH]c3ccccc32)c1=O)Nc1ccc(F)cc1F	98
N#C/C(=C(/O)C(F)(F)F)c1nc2ccccc2[nH]1	100
CCn1c(=O)cc(SCC(=O)N2CCCCC2)c2ccccc21	96
Cc1nnc(SCc2cccc(C(=O)c3ccccc3)c2)[nH]c1=O	99
Cc1cccc(NC(=O)OC2CN3CCC2CC3)c1 (stereo unspecified)	111
CNC(=O)C(C)n1c2ccccc2c2nc(=O)cc(C)n21 (stereo unspecified)	100
CC(CC#N)C(=O)c1ccc(Cl)cc1 (stereo unspecified)	107
O=C(c1ccc(S(=O)(=O)N2CCCCC2)cc1)n1cnc2ccccc21	103
Cc1ccccc1NC(=O)Cn1c(=O)n(CCCS(=O)(=O)C2CCCCC2)c(=O)c2ccccc21	105
CCC(C)OC(=O)C(C)Oc1ccc2c3c(c(=O)oc2c1)CCC3 (stereo unspecified)	100
CC(C)C(=O)Nc1nc(OC(=O)N(c2ccccc2)c2ccccc2)c2[nH]cnc2n1	88
Cc1cc(-c2ccccc2)[nH]c(=O)c1S(C)(=O)=O	115
COc1ccc(-c2cc(-c3ccc(Cl)c(Cl)c3)nc(N)c2C#N)cc1OC	98
Cc1ccc2c(CNC3CCCC3)c(C(=O)O)n(C)c2c1	98
O=C(CSc1cccc2cccnc12)Nc1cccc(C(F)(F)F)c1	98
NS(=O)(=O)c1ccc(CCn2ccn(CC(=O)NCCC3=CCCCC3)c(=O)c2=O)cc1	106
Cc1cc2cc(CNC(=O)CCCc3ccccc3)ccc2n1C	100
COc1cc(-c2nc3sc4c(c3c(=O)o2)CCC4)cc(OC)c1OC	101
COc1ccc(S(=O)(=O)NC2CCCCCC2)cc1C	99
O=C(Nc1sc2c(c1C(=O)O)CCCC2)c1ccccc1	92
Cc1cccc(/C=C2\Sc3ccc(C(=O)N4CCC(C)CC4)cc3N(C)C2=O)c1	98
Cc1ccccc1NC(=O)C(C)n1c(C(F)(F)F)nc2ccccc21 (stereo unspecified)	84
O=C(NC1CCCC1)c1cc(=O)[nH]c2ccc(S(=O)(=O)N3CCCC3)cc12	99
Cc1[nH]c(=O)[nH]c(=O)c1S(=O)(=O)N1CCCCC1C (stereo unspecified)	121
O=C(Nc1sc2c(c1C(=O)Nc1ccccc1)CCCC2)c1ccccc1	101
CCc1ccc(-c2ncnn2-c2cccc(Cl)c2C)cc1	100
CC(=O)Oc1ccc2c(=O)c(Oc3ccc(Cl)cc3)coc2c1	95
CCCCc1c(O)nc(SCCC(=O)O)[nH]c1=O	100
COCCN(C(=O)Nc1ccc(OC)cc1OC)C1CCN(C(C)=O)CC1	108
CCc1ccccc1NC(=O)CCCn1sc2ccccc2c1=O	98
Nc1ccc(OCCOc2ccc(N)cc2)cc1	100
CC1CC(C)CN(C(=O)c2ccc(S(=O)(=O)N3CC(C)CC(C)C3)cc2)C1 (stereo unspecified)	96
O=C(CC1NCCNC1=O)NC1Cc2ccccc2C1 (stereo unspecified)	102
Cc1ccc(C(=O)COc2cc(C)nc3nncn23)cc1	98
COC(=O)c1cc(NC(=O)c2ccco2)cc(C(=O)OC)c1	100
CCOC(=O)c1nnn(-c2nonc2N)c1CN1CCSCC1	98
O=C(CSC1=NS(=O)(=O)c2ccccc21)Nc1ccc(Br)cc1	101
CCCSC1=C(C#N)C(c2cc(Br)c(O)c(OC)c2)CC(=O)N1 (stereo unspecified)	101
CCc1ccc(NC(=O)c2cc3ccccc3oc2=O)cc1	100
Cc1ccc(S(=O)(=O)N2CCCCC2c2cccnc2)cc1 (stereo unspecified)	96
CCOC(=O)N1CCN(C(=O)CN(C2CCCCC2)S(=O)(=O)c2ccccc2)CC1	101

(cont.)
Structure	VACV E9 pol inh
Cc1ccc(CSc2nnc3c(n2)[nH]c2ccccc23)cc1	97
CN1C(=O)CC(c2cn(Cc3ccccc3)c3ccccc23)C1=O (stereo unspecified)	92
Cc1ccc(CNC(=O)Cc2noc3ccccc23)cc1	110
O=C(Nc1ccccc1Cl)Nc1ccccc1Cl	100
COc1cccc(NC(=S)N(C)C2CCN(C)CC2)c1	100
COc1ccccc1-n1c(-c2ccncc2)n[nH]c1=S	101
CCOc1ccc(CCN)cc1OCC	93
CCOc1ccccc1CNC(=O)c1ccc2c(c1)N(C)CCS2	106
CCC(=O)Nc1nnc(-c2ccc(Cl)cc2)s1	100

These rows are one share of the data, so the mix of outcomes need not match the whole.
